HSD17B inh = qHTS Assay for Inhibitors of HSD17B4, hydroxysteroid (17-beta) dehydrogenase 4; Potency, µM (highest dose often 57.1 µM), inactives show top-dose activity change, negative = inhibition, actives largely listed as inhibitors; 75,000 tested, 7.6% active; recombinant HSD17B10, NADH fluorescence kinetic; many of its hits are not listed in these tables; 3-hydroxyacyl-CoA dehydrogenase type-2 (Homo sapiens), Q99714; active = well fitted inhibition curve with a large enough effect; inconclusive = small, poorly fitted or top-dose-only effect; inactive = no such curve, though single readings can be large or run the other way;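 note: the protocol describes HADH2 (HSD17B10) and not the HSD17B4 of the title; nearly all actives have a fitted effect of over 70% in size; most hits overshoot -100% by far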
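20 nM HADH2, pH 9.0 Tris/Tween; cpd preinc 15 min RT; start w/ 1 mM NAD+ + 90 uM b-hydroxybutyryl-CoA; kinetic fluor ex360/em450 q30s x 4 min; delta last-first.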
* = called active by the depositor; [ ] = dose if it differs, or a comment. % is set by controls: 0 for no effect and ±100 for the full control effect; potency is the fitted concentration of half-maximal effect. Not all compounds are listed; count on the stated rates, not on these rows.

Screening CC(C)CC(=O)N1CCN(S(=O)(=O)c2ccc(F)cc2)CC1 returned HSD17B inh -3%.
For COCCNC(=O)CN(C(=O)Cn1nnc2ccccc21)c1ccccc1 the results were HSD17B inh 3%.
Screening Nc1c[n+](N2CCOCC2)no1 returned HSD17B inh 13µM*.
CN(C(=O)c1cccc(C#N)c1)c1nnc(C2CCCO2)s1 (stereo not drawn) was read as HSD17B inh 2%.
Screening COc1ccccc1OCC(=O)N1CCN(c2ccccc2OC)CC1 returned HSD17B inh 12%.
For COC(=O)c1nc(N)sc1-c1ccccc1 the results were HSD17B inh inconclusive.
`Cc1cc(NCCOCCO)n2ncc(-c3ccc(Cl)cc3)c2n1` gave HSD17B inh 32µM*.
`O=C(CN1CCCCC1)Nc1ccccc1NC(=O)CN1CCCCC1` gave HSD17B inh 11%.
For CC(C)CN1CCCC2(CCN(S(=O)(=O)c3ccccc3)CC2)C1 the results were HSD17B inh 4%.
Screening Cc1[nH]nc2c1C(c1ccccn1)N(c1ccc(Br)cc1)C2=O (stereo not drawn) returned HSD17B inh -22%.
Cc1cc(C)c2c(CN3CCN(C/C=C/c4ccccc4)CC3)cc(=O)oc2c1 was read as HSD17B inh -9%.
Screening Cc1cccc(-c2noc(CN(C(=O)c3c(-c4ccccc4Cl)noc3C)C(C)C)n2)c1 returned HSD17B inh -6%.
Screening Cc1nc2ccccc2n1CC(=O)N1CC(=O)Nc2ccccc21 returned HSD17B inh -5%.
For COc1ccc(NC(=O)c2cccc(NC(=O)C3C4CC5OC(=O)C3C5C4)c2)c(OC)c1 (stereo not drawn) the results were HSD17B inh 9%.
For Cc1noc(C)c1-c1cncnc1N(C)Cc1ccco1 the results were HSD17B inh -4%.

The final 2 records of the section above are carried over, then new ones follow.
For COc1ccc(NC(=O)c2cccc(NC(=O)C3C4CC5OC(=O)C3C5C4)c2)c(OC)c1 (stereo not drawn) the results were HSD17B inh 9%.
For Cc1noc(C)c1-c1cncnc1N(C)Cc1ccco1 the results were HSD17B inh -4%.
`Cc1nc(SCC(=O)Nc2ccc(F)cc2)c2oc3ccccc3c2n1` gave HSD17B inh 7%.
For C=CCOc1cccc(C2C(C(=O)c3ccc(C)o3)=C(O)C(=O)N2CCN(C)C)c1 (stereo not drawn) the results were HSD17B inh -2%.
Screening CCOC(=O)c1sc(NC(=O)COC(=O)Cn2cnc3ccccc32)c(C(=O)OCC)c1C returned HSD17B inh -2%.
Cc1cccc(N2CCN(C(=O)CCNS(=O)(=O)c3ccc4c(c3)CCC(=O)N4)CC2)c1C was read as HSD17B inh -15%.
For CC1=CC(C)(C)Nc2cc(C)c(C)cc21 the results were HSD17B inh inconclusive.
For CCc1ccccc1 the results were HSD17B inh -1%.
For CN1CCc2nc(N)nc(-c3nc(N)nc4c3CN(C)CC4)c2C1 the results were HSD17B inh 2%[11.4 µM].
CCn1c(=O)n(CC)c2cc(S(=O)(=O)N3CCOCC3)ccc21 was read as HSD17B inh 2%.
`Clc1ccc(Cc2nn3c(-c4ccncc4)nnc3s2)cc1` gave HSD17B inh 2%.

Quoted at random: 3 compounds from above, in no set order.
`Cc1nc(SCC(=O)Nc2ccc(F)cc2)c2oc3ccccc3c2n1` gave HSD17B inh 7%.
Screening CCOC(=O)c1sc(NC(=O)COC(=O)Cn2cnc3ccccc32)c(C(=O)OCC)c1C returned HSD17B inh -2%.
Cc1cccc(N2CCN(C(=O)CCNS(=O)(=O)c3ccc4c(c3)CCC(=O)N4)CC2)c1C was read as HSD17B inh -15%.

Gathered by group, those above containing a Cl atom.
`Cc1cc(NCCOCCO)n2ncc(-c3ccc(Cl)cc3)c2n1` gave HSD17B inh 32µM*.
Screening Cc1cccc(-c2noc(CN(C(=O)c3c(-c4ccccc4Cl)noc3C)C(C)C)n2)c1 returned HSD17B inh -6%.
`Clc1ccc(Cc2nn3c(-c4ccncc4)nnc3s2)cc1` gave HSD17B inh 2%.

Compounds above containing fluorine:
Screening CC(C)CC(=O)N1CCN(S(=O)(=O)c2ccc(F)cc2)CC1 returned HSD17B inh -3%.
`Cc1nc(SCC(=O)Nc2ccc(F)cc2)c2oc3ccccc3c2n1` gave HSD17B inh 7%.

From PubChem BioAssay
